# VACV mCherry inh: qHTS for Stage-Specific Inhibitors of Vaccinia Orthopoxvirus: mCherry Reporter Primary qHTS; actives 0.63% (n = 310,000); Vaccinia virus mCherry reporter infection, fluorescence; about a quarter of the inactives have no number; Potency, µM (titrated, usually from 36.5 µM), without a hit: at the highest dose activity change, negative = inhibition, actives largely listed as inhibitors; active = well fitted inhibition curve with a large enough effect; inconclusive = small, poorly fitted or top-dose-only effect; inactive = no such curve, though single readings can be large or run the other way; tested in A549 cells; further: nearly all actives have a fitted effect of over 35% in size; inactives centre near -10
# VACV Venus inh: qHTS for Stage-Specific Inhibitors of Vaccinia Orthopoxvirus: Venus Reporter Primary qHTS | Vaccinia virus Venus reporter expression, fluorescence | Potency, µM (highest dose often 36.5 µM), without a hit: at the top dose activity change, negative = inhibition, hits mostly inhibitors | actives 0.46% (n = 330,000) | AID 720580, 2013; active means well fitted inhibition curve with a large enough effect; inconclusive means small, poorly fitted or top-dose-only effect; inactive means no such curve, though single readings can be large or run the other way; tested in A549 cells; further: nearly all actives have a fitted effect of over 30% in size; inactives centre near -10
# * = called active by the depositor; i = inactive; u = inconclusive; x = not tested or not shown; & = joins results of further samples; [ ] = dose if it differs, or a comment. On the % scale 0 is the no-effect control and ±100 the full control effect; potency means the concentration at half of the fitted maximal effect.
Molecule	VACV mCherry inh	VACV Venus inh
COc1ccccc1Oc1ccc2c(c1)C(=O)N(c1ccc(O)cc1)C2=O	x	-18%
O=C(Nc1ccccc1)Nc1ccccc1Br	-9%	-15%
CC(C)c1nc(C#N)c(NCCCn2ccnc2)o1	-10%	-8%
CCN1Cc2ccccc2-c2ccccc2S1(=O)=O	-10%	-1%
COC(=O)CC1C(=O)NCCN1C(=S)Nc1ccc(F)cc1 (configuration not stated)	i	-11%
O=C(CSc1nnnn1C1CCCC1)NCc1ccc2c(c1)OCO2	-1%	-15%
CCOC(=O)C1=NN(C(=O)Nc2ccc(OC)cc2)C2C(=O)N(c3cccc(C(F)(F)F)c3)C(=O)C12 (configuration not stated)	-15%	-2%
Cc1cc(Br)ccc1NC(=O)Cn1cc(S(=O)(=O)N2CCN(c3ccccc3F)CC2)c2ccccc2c1=O	-15%	-5%
CN1CCN(C=Nc2nc3ccccc3nc2N2CCCC2)CC1	-14%	-1%
Cc1ccc(C(=O)OCC(=O)c2c[nH]c3ccccc23)cc1NC(=O)c1ccco1	u	-25%
COc1cccc(C(=O)Nc2ccc(-n3nncc3-c3ccccc3)cc2)c1OC	i	-12%
Cc1ccc2nc(NC(=O)CSc3nccn3Cc3ccccc3)sc2c1	-11%	-6%
Nc1ccc2oc(=O)c3ccccc3c2c1	i	-1%
COc1ccc(-c2csc3ncnc(N4CCN(c5cccc(OC)c5)CC4)c23)cc1	-14%	-4%
CCCC(=O)N1CCN(c2ccc(NC(=O)c3ccc([N+](=O)[O-])o3)cc2)CC1	10µM*	10µM*
Cc1cc([N+](=O)[O-])cc2ncccc12	i	0%
Cc1cc(COC(=O)C2N3C(=O)[C@@H](NC(=O)COc4ccccc4)[C@H]3SC2(C)C)on1 (some centres not stated)	-3%&-1%	-7%&-19%
O=c1[nH]c(/C=C/c2cccc3ccccc23)nc2ccccc12	-6%	-6%
CCNc1ccc(S(=O)(=O)N(C)C)cc1NCC(=O)Nc1ccccc1Br	i	-19%
CC(=O)c1cccc(NC(=O)CSc2nc3c(=O)n(C)c(=O)n(C)c3n2C)c1	-9%	-6%
COc1ccc(OC)c(NC(=O)C(CC(=O)O)NCc2ccco2)c1 (configuration not stated)	-5%	-1%
O=C(CCc1nnc(C2CCCCC2)o1)NCc1cccc(-n2cccn2)c1	-12%	3%
CCOc1ccc(Oc2nc(NCC(C)C)nc(OC)n2)nn1	i	-13%
CC(NC(=O)c1ccccc1)c1nc2ccccc2n1Cc1ccc(C#N)cc1 (configuration not stated)	x	-11%
CCOC(=O)c1sc2nc(NC(=O)C(C)(C)C)sc2c1C	-5%	-17%
CCN1CNC(=S)N(Cc2ccccc2)C1	i	-12%
CC(C)CC(=O)NC(=S)Nc1ccc(S(=O)(=O)N2CCCC2)cc1	-18%	-5%
Cc1nn(-c2ccc(N3CCCC3)nn2)c(C)c1CCC(=O)NCc1ccc(OC(C)C)cc1	2%	1%
CCN1CCN(Cc2c(O)ccc3oc(C)c(C(=O)Nc4ccc(OC)cc4)c23)CC1	-9%	-4%
COC(=O)c1cc(-c2ccc(F)cc2)n(-c2ccccc2)n1	-21%	-9%
O=S(=O)(Nc1ccc(-c2nnc(SCc3ccc(Cl)cc3)o2)cc1)c1ccccc1	-28%	-24%
O=C(CS(=O)(=O)c1ccccc1)Nc1nnc(Cc2ccccc2)s1	i	-18%
CNC(=O)C1=C(C)Nc2nc3ccccc3n2C1c1ccc(F)cc1 (configuration not stated)	-4%	-2%
COc1cc(C2C3C(=O)N(c4ccccc4)C(=O)C3ON2c2ccccc2)cc(OC)c1OC (configuration not stated)	x	-3%
CC(=O)Nc1c(C#N)c(C(C)(C)C)cn1C	i	-1%
COc1ccc(C(=O)CCNc2cccc(Cl)c2)cc1	-3%	-11%
CC(=O)Nc1ccc(S(=O)(=O)NC2(C(F)(F)F)C(=O)NC(C)=C2C#N)cc1 (configuration not stated)	i	-7%
CC(/C=C(\NC(=O)c1ccccc1)C(=O)N=Nc1c(O)[nH]c2ccc(C)cc12)=C\c1ccccc1	x	-19%
COc1ccccc1CCNc1ncnc2nc[nH]c12	-26%	u
Cc1ccc(-c2n[nH]c3c2C(c2ccccc2)N(c2ccc(C(=O)O)cc2)C3=O)cc1 (configuration not stated)	1%	-3%

# 7 of these compounds, reformatted:
# Sequence of screens – VACV mCherry inh | VACV Venus inh
> O=C(CCc1nnc(C2CCCCC2)o1)NCc1cccc(-n2cccn2)c1
  -12% | 3%
> CCOc1ccc(Oc2nc(NCC(C)C)nc(OC)n2)nn1
  i | -13%
> CC(NC(=O)c1ccccc1)c1nc2ccccc2n1Cc1ccc(C#N)cc1 (configuration not stated)
  x | -11%
> CCOC(=O)c1sc2nc(NC(=O)C(C)(C)C)sc2c1C
  -5% | -17%
> CCN1CNC(=S)N(Cc2ccccc2)C1
  i | -12%
> CC(C)CC(=O)NC(=S)Nc1ccc(S(=O)(=O)N2CCCC2)cc1
  -18% | -5%
> Cc1nn(-c2ccc(N3CCCC3)nn2)c(C)c1CCC(=O)NCc1ccc(OC(C)C)cc1
  2% | 1%

# Other structures.
Molecule	VACV mCherry inh	VACV Venus inh
O=C(NCCc1nc(-c2ccc(F)cc2)no1)c1ccc(F)cc1	i	-7%
NC(=O)NC(=O)COC(=O)[C@H](Cc1ccccc1)NC(=O)c1cccs1	i	-1%
COc1cc(C(=O)NC(=S)Nc2ccc3[nH]c(=O)[nH]c3c2)cc(OC)c1OC	i	-4%
N#C/C(=C\c1ccc[nH]1)Sc1nc2ccccc2s1	x	u
COc1ccc(C2CC(c3ccccc3)=NN2c2ccc(N)cc2)cc1 (configuration not stated)	-7%	-19%
c1coc(-c2nn3c(-c4ccco4)nnc3s2)c1	4%	-8%
COc1ccc(CC(=O)NCC(c2ccc(N(C)C)cc2)N2CCOCC2)cc1OC (configuration not stated)	-6%	-2%
CCOC(=O)CSC1=C(C#N)C(c2ccc(C)cc2)C2=C(CCCC2=O)N1 (configuration not stated)	x	-10%
COc1cccc(C(=O)NCC(=O)N/N=C/c2ccc(OC(=O)c3cccs3)c(OC)c2)c1	-7%	-5%
Cc1ccc(NC(=O)Cn2c(=O)cc(-c3ccccc3)c3c(C)nn(C)c32)c(Cl)c1	u	u
CC(=NCC1CCCO1)c1c(O)n(-c2ccccc2)c(=O)[nH]c1=O (configuration not stated)	x	-26%
CC(C)CN(CC(C)C)S(=O)(=O)N1CCC(C(=O)N2CCc3ccccc3C2)CC1	-2%	5%
CCNC(=O)NC(=O)C(C)Sc1ncc(C(F)(F)F)cc1Cl (configuration not stated)	-19%	7%
Cc1ccc(C(=O)Cc2ccccc2)c(O)c1	-3%	-7%
O=C(NNC(=O)c1cc2ccccc2oc1=O)c1ccccc1[N+](=O)[O-]	-9%	-2%
CCOC(=O)c1[nH]c2ccc(F)cc2c1NC(=O)c1cc(OC)c(OC)c(OC)c1	-16%	-10%
COc1ccc(Nc2nc3[nH]c(=O)cc(O)c3s2)cc1	1%	5%
CNC(=O)OCN1C(=O)C2CC=CCC2C1=O (configuration not stated)	-3%	-5%
C=C1CCN([C@@H](Cc2ccccc2)C(=O)NC2CCN(Cc3ccccc3)CC2)S(=O)(=O)c2ccccc21	i	-5%
CN(Cc1ccccc1)C(=O)c1ccccc1-c1ccccc1	-7%	-15%
Cc1ccc(OCC(O)CNC2CCCC2)cc1C (configuration not stated)	-5%	-11%
Clc1ccc(C(c2ccccc2)c2c[nH]c3ccccc23)s1 (configuration not stated)	-25%	-20%
CC(C)CCN(C)c1ccc(/C=N/n2cnnc2)cc1	x	-17%
CCC(C)N(C(=O)COC(=O)CNC(=O)c1sc2ccccc2c1Cl)C1CCS(=O)(=O)C1 (configuration not stated)	i	-18%
CCC(CC)C(=O)c1c[nH]c(C(=O)NC2CCCCCC2)c1	i	-13%
Cc1ccc(S(=O)(=O)c2c(C)c(C)c(C)[nH]c2=O)cc1	-12%	-29%
COc1cc2c(cc1OC)C(c1cccc([N+](=O)[O-])c1)N(C(=O)c1ccc(F)cc1)CC2 (configuration not stated)	x	-11%
CC(C)c1ccc(NS(=O)(=O)c2ccc3nc(-c4ccccc4)[nH]c3c2)cc1	-17%	-22%
COc1ccccc1CNC(=O)C(=O)NCC(c1cccnc1)N1CCN(c2ccccc2)CC1 (configuration not stated)	-18%	-21%
CC(=O)Nc1ccc(S(=O)(=O)N2CCC(N3CCCC3)CC2)cc1	-12%	-6%
O=C(COc1coc(CN2CCN(c3ccccc3)CC2)cc1=O)Nc1ccccc1F	-8%	-14%
Nc1ccc(C(=O)Nc2nccs2)cc1	-7%	-8%
CN1C(=O)/C(=C\C(=O)c2cccs2)c2ccccc21	i	-5%
Cc1ccc(C)c(N2CCN(C(=O)CCC(=O)N3CCOc4ccc(Cl)cc43)CC2)c1	u	u
Oc1ccc(C[C@@H]2CNCCN2CCc2cc(C(F)(F)F)cc(C(F)(F)F)c2)cc1	14µM*	10µM*
COc1cccc(N2CCN(Cc3nnnn3C3CCCCC3)CC2)c1	-11%	-19%
CS(=O)c1ccccc1-c1nc(-c2cccc(Cl)c2)no1 (configuration not stated)	-10%	-2%
CCOC(=O)C(=CNNc1ccccc1)C(=O)OCC	i	-10%
COc1cc(/C=N/NC(=O)c2cc(C)n(-c3ccc(F)cc3)c2C)cc(OC)c1O	-23%	-6%
CCC(NC(=O)Nc1ccc(OC)c(OC)c1)c1c(-n2cccc2)sc2c1CCN(C)C2 (configuration not stated)	-22%	-17%
Cc1c(C(=O)NCc2ccccc2C(F)(F)F)sc(=O)n1Cc1ccc2ccccc2c1	i	-2%
Cc1cccc(NC(=O)C(=O)NCC(c2cccnc2)N2CCN(Cc3ccccc3)CC2)c1 (configuration not stated)	-6%	-16%
COc1cc(NC(=O)c2cc(CC(C)C)on2)c(OC)cc1Cl	5%	5%
CC1CCCN(C(=O)CN2C(=O)C(C)Oc3ccccc32)C1 (configuration not stated)	13%	7%
COc1ccc(NC(=S)N2CCC(c3nc4ccccc4[nH]3)CC2)c(OC)c1	u	-11%
CC(=O)NCCNC(=O)CCCc1nnc2n(CCC(C)C)c(=O)c3sccc3n12	-13%	-6%
C=CCNC(=O)c1cnn2c1NC(=C)C=C2C	-17%	-10%
Cc1ccc(-n2nc(C(=O)Nc3ccc(F)cc3F)c3c4ccccc4n(C)c3c2=O)cc1	-13%	-3%
CC1Oc2ccc(C#N)cc2N(Cc2ccccc2OC(F)(F)F)C1=O (configuration not stated)	-4%	5%
CSc1ccccc1OCc1cc(C(=O)NC2CCOC(C)(C)C2)no1 (configuration not stated)	-3%	-22%
CCOC(=O)C1CCN(c2cc3c(cc2NC(=O)c2ccccc2Cl)n(C)c(=O)n3C)CC1	-1%[7.34 µM]	-10%[7.34 µM]
COc1ccc(-c2csc(C(C)(NC(C)=O)c3ccccc3)n2)cc1 (configuration not stated)	-5%	2%
CCOc1ccc(-c2nc(CSCC(=O)NCC3CCCO3)c(C)o2)cc1 (configuration not stated)	i	-18%
C#CCOCCOCCOCCNc1nc(N2CCN(C(=O)[C@H](CCCCN)n3cc(CN)nn3)CC2)nc(N2CCN(C(=O)[C@H](CCC(=O)O)n3cc([C@@H](N)[C@H](C)CC)nn3)CC2)n1	i	-8%
O=C(Nc1ccc(Cn2cccn2)cc1)c1ccc(COc2ccc(Br)cc2)cc1	-19%	-7%
COc1ccccc1-c1oc2ccccc2c1C#CCCCCO	i	-19%
NC(=O)c1ccc(NC(=O)COC(=O)CC23CC4CC(CC(Br)(C4)C2)C3)cc1	-2%	-12%
O=C(COc1ccccc1[N+](=O)[O-])NCCC1=CCCCC1	-23%	-13%
COc1ccc(NC(=O)CN(C)C(=O)c2cn(-c3ccccc3)nc2-c2cccnc2)cc1	i	-13%
CCCCN(C(=O)c1ccccc1OCc1ccc(F)cc1)c1c(N)n(CCC)c(=O)[nH]c1=O	-10%	-13%

# Next part:
Molecule	VACV mCherry inh	VACV Venus inh
CC1(C)C(OC(=O)CCC(=O)O)CC[C@]2(C)C1CC[C@@]1(C)C2C(=O)C=C2[C@@H]3C[C@@](C)(C(=O)O)CC[C@]3(C)CCC21C (some centres not stated)	-14%	-11%
CNC(=S)Nc1cccc(S(=O)(=O)NC2=NCCC2)c1	-1%	9%
CN(C)C1CCc2[nH]c3c(F)cc(F)cc3c2C1 (configuration not stated)	-5%	-13%
CC1(C(=O)Nc2cccc(C#N)c2)CCN1C(=O)Cc1ccc(-c2ccccc2)cc1 (configuration not stated)	11%	-24%
CCOc1ccc(C(=O)NCC(=O)OCC(=O)N2CCCCC2)cc1	-7%	-1%
COc1ccc(-n2nc(C(=O)NCC(=O)NC(C)C)c3ccccc3c2=O)cc1	-13%	3%
CC(=O)CSc1nc2nccnc2[nH]1	-2%	-6%
O=C(c1ccc(CS(=O)c2ccccc2Cl)o1)N1CCN(c2cccc(C(F)(F)F)c2)CC1 (configuration not stated)	-16%	u
C/C=C/Cn1c(SCc2ccc(Cl)cc2)nc2c1c(=O)[nH]c(=O)n2C	x	-22%

# High-throughput results deposited in PubChem BioAssay by National Center for Advancing Translational Sciences (NCATS).
